Assay outcomes: PubChem BioAssay, National Center for Advancing Translational Sciences (NCATS)
Menin-MLL FL inh = menin-MLL binding inhibition, fluorescein peptide; 290,000 tested, under 10 active; AID 1766; Fluorescence polarization, fluorescein-MLL peptide displacement from menin; FP activity change, % at 61.4 µM; inconclusive = falling polarisation curve, or a change in total fluorescence; inactive = total fluorescence flat and polarisation flat or rising; no compound was filed as active; the % refers to the polarisation; negative = inhibition;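 also: % of control where 0% means no effect; inhibitors lower the polarisation; unlabelled MLL peptide was the positive control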
PINK1 modulator = PINK1 expression modulation. PINK1 immunofluorescence, high-content cytometry, 24 h. Potency, µM (series often up to 76.6 µM), for inactives: at the top dose activation (PINK1 increase), actives largely listed as activators. actives 0.2% (n = 410,000). AID 624263; active = well fitted activation curve with a large enough effect; inconclusive = small, poorly fitted or top-dose-only effect; inactive = flat fitted curve, though single readings scatter; cell line not stated here;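 also: potency is read from the fitted curve at half-maximal effect; % of control where 0% means no effect; nearly all actives have a fitted effect of over 65% in size; a mitochondrial uncoupler was the plate control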
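Fluorescence from anti-PINK1 antibody, together with nuclear and cell stains, was scanned on a laser-scanning cytometer. Before staining, stable-line cells were incubated 24 hours with compounds at 5 concentrations; primary antibody 12 h at 10 degrees C.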
Sfp PPTase inh = blocks B. subtilis Sfp PPTase activity | actives 3.5% (n = 310,000) | Q9F4F7 | Potency, µM, inactives show max response, negative = inhibition, actives largely listed as inhibitors | Biochemical Sfp PPTase activity, qHTS; active = well fitted inhibition curve with a large enough effect; inconclusive = small, poorly fitted or top-dose-only effect, or another doubt; inactive = no such curve, though single readings can be large or run the other way;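 also: the enzyme is Sfp with the accession as filed and its product quenches rhodamine fluorescence; potency is read from the fitted curve at half-maximal effect; 0% = enzyme reaction without inhibitor and -100% = no enzyme wells; top concentration of the series not given in the record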
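Reaction rates are the 30-min fluorescence difference (ex 525, em 598 nm) in wells containing 15 nM Sfp, 5 uM rhodamine-CoA and 12.5 uM BHQ-2-YbbR at pH 7.6 with 10 mM MgCl2.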
TRPV1 potentiator = potentiators of human vanilloid receptor 1 (TRPV1). actives 0.02% (n = 320,000). AID 540277. potentiation, % at 8.33 µM. TRPV1-expressing cells, Fluo-8 calcium influx, capsaicin EC20 potentiation; host cell line not named in the record; control for the full effect not named in the record. Q8NER1; active means potentiation above 80%; inconclusive means 30% to 80%; inactive means below 30%; also: 0% is about no effect
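TRPV1-expressing cells were cultured overnight at 35.5C and loaded with Fluo-8 calcium dye for 40 to 90 min at room temperature. After a 10 s baseline, compound was added and calcium influx was read kinetically for 3 min (ex 480/em 520 nm).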
TRPML1 inh = human mucolipin-1 channel inhibition; activity change, negative = inhibition, % (concentration not given with the values); TRPML1-inducible cells, Ca2+ dye fluorescence, FDSS; hits give low values; inhibition of EC80 agonist-evoked calcium signal; actives 0.02% (n = 390,000); AID 624415; in the data active means activity change below about -50%; inconclusive means about -30% to -50%; inactive means above about -30%;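 also: stimulus is agonist 54-4 at its EC80 concentration; % is scaled to controls: 0 for no effect and ±100 for the full control effect; compound concentration not given in the record; the text of the record puts the active cut at -80%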
Target sequence (Q9GZU1 whole entry, looked up): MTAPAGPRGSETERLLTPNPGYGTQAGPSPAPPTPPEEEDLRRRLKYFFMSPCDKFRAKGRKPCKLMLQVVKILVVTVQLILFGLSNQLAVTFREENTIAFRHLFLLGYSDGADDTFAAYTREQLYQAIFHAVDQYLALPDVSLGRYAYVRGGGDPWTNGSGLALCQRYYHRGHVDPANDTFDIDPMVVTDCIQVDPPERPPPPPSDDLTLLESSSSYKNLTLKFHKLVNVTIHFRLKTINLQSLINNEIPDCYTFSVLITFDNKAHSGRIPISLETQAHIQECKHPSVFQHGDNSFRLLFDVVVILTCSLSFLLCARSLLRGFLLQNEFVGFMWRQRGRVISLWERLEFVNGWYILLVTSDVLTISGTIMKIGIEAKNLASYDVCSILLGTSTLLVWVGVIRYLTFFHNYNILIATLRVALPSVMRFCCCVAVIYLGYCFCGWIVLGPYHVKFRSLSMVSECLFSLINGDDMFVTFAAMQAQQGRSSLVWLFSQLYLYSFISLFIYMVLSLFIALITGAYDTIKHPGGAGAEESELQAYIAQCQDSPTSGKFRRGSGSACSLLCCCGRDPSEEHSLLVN
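Tet-induced TRPML1-DL cells loaded with Ca8 no-wash calcium dye were read kinetically on FDSS. Compound addition was followed by EC80 agonist 54-4 (4 uM final); inhibition was read over 110 s.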
ClpP mod = qHTS Assay for Activators of ClpP; AID 651965, 2013; Potency, µM (highest dose often 57.5 µM), for inactives: at the top dose activity change, negative = active; ATP-dependent Clp protease proteolytic subunit (Bacillus subtilis (strain 168)), P80244; purified B. subtilis ClpP, FRET peptide cleavage, 20 min; actives 1.9% (n = 340,000); active = well fitted falling curve with a large enough effect; inconclusive = small, poorly fitted or top-dose-only effect; inactive = no such curve, though single readings can be large or run the other way; also: potency is read from the fitted curve at half-maximal effect; the source files actives as falling curves though it sought activators and does not explain the sign; nearly all actives have a fitted effect of over 65% in size; many hits overshoot -100%
Target sequence (P80244 whole entry, looked up): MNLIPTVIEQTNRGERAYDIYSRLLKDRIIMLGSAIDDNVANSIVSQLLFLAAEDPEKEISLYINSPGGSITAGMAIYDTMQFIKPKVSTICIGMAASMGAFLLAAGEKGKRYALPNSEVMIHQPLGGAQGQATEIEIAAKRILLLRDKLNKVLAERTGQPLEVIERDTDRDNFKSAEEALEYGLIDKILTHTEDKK
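Buffer: 100 mM Tris/HCl pH8, 100 mM KCl, 0.05% low protease BSA, 2.5% glycerol, 0.01% Tween-20. ClpP 10 microg/mL final; 20 min RT; delta FRET normalized to ADEP and DMSO controls.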
TRPML1 agonist = human mucolipin-1 channel agonism | Q9GZU1 | TRPML1-expressing cells, Ca2+ dye fluorescence, FDSS; host cell line not named in the record; reference of the full effect not given here | activation, % (no concentration beside the values) | actives 0.12% (n = 410,000); in the data active = activation above about 50%; inconclusive = about 30% to 50%; inactive = below about 30%; also: 0% is about no effect; the text of the record puts the active cut at 80%
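TRPML1-DL cells, Tet-induced overnight (~16 h, 37 degrees C), loaded 45-90 min at room temperature with Ca8 no-wash calcium dye plus quencher. FDSS fluorescence: 10 s baseline, compound pin-transfer, 110 s agonist read, then EC80 54-4 (4uM final) and 110 s antagonist read.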
An asterisk follows results filed as active; ? = inconclusive; nt = not tested or not shown; [ ] = another dose, or the depositor's remark.

SMILES	Menin-MLL FL inh	PINK1 modulator	Sfp PPTase inh	TRPV1 potentiator	TRPML1 inh	ClpP mod	TRPML1 agonist
Cc1ccc(CN2C(=O)C[C@@H](NC(=O)OCC3c4ccccc4-c4ccccc43)C/C=C\C2c2ccc(C)cc2)cc1 (some centres not stated)	nt	-0.4%	nt	nt	6	-3.8%	0.3
CN1CCN(/N=C/c2cccc(Cl)c2Cl)CC1	11	1.0%	3%	-6	-7	0.2%	0.4
CCOC(=O)CSc1nc2ccccc2c(=O)n1CCCCCC(=O)NCc1ccco1	2.1	5.1%[38.3 µM]	-1%	-2	2	-0.9%	1.6
Cn1cnc(S(=O)(=O)N2CCCC(C(=O)NCc3ccccc3)C2)c1 (configuration not stated)	nt	0.0%	nt	nt	40	2.5%	0.8
O=C(CN1C(=O)/C(=C2/SC(=S)N(CCS(=O)(=O)O)C2=O)c2ccccc21)Nc1cccc(Br)c1	nt	-0.1%	nt	nt	3	nt	-0.7
O=c1cc(CN2CCN(C/C=C/c3ccccc3)CC2)c2cc(O)ccc2o1	6.5	-0.3%	9%	-5	3	-3.1%	0.0
O=C(NC1CCCCC1)/C(=C/c1ccc(Cl)cc1)NC(=O)c1ccccc1	nt	4.2%	nt	nt	13	1.4%	0.6
Cc1nn(C)cc1NC(=O)Cn1nc(C(F)(F)F)cc1C1CC1	0.5	1.0%	0%	0	-13	-2.0%	-0.4
COC(=O)c1c(N2C(=O)[C@H]3[C@@H](C2=O)[C@]2(C(=O)Nc4c(C)cc(C)cc42)N2CCC[C@@H]32)sc(C)c1C	8.0	1.3%	-3%	9	16	nt	0.8
COc1cccc(Nc2nc(Nc3ccc(Cl)c(C(=O)O)c3)nc(C)c2[N+](=O)[O-])c1	nt	2.9%	nt	-3	56	-0.6%	1.5
COc1cc2c(cc1OC)C(COc1ccc(F)cc1)N(C(=O)Cc1ccc(F)cc1)CC2 (configuration not stated)	nt	-0.9%	nt	nt	56	-2.4%	3.0
CCn1nccc1C(=O)Nc1nccs1	2.5	-0.9%	9%	-14	-7	-1.3%	-0.1
Cc1ccc(-c2nc3n(n2)C(c2ccccc2Cl)C=C(c2ccc(Cl)cc2)N3)cc1 (configuration not stated)	nt	0.0%	nt	nt	21	-3.7%	0.1
O=C(NCC1CCCN1S(=O)(=O)c1cccs1)C(=O)Nc1cccc(F)c1 (configuration not stated)	nt	-0.1%	nt	-35	6	-7.6%	-0.1
O=C(Nc1ccc(Oc2cccc3ccccc23)cc1)c1ccco1	8.1	14%	27%	8	5	-5.7%	3.1
O=C(O)CC1S/C(=N\N=C2\C(=O)Nc3ccccc32)N(c2ccc(O)cc2)C1=O (configuration not stated)	3.6	0.6%	2%	-9	19	0.7%	-0.6
CCc1cc(=O)oc2cc(OCC=C(C)C)ccc12	0.5	0.4%	-16%	-14	-1	?	1.5
COc1ccc(Nc2ccc(N3C(=O)CCCC3=O)cc2[N+](=O)[O-])c(OC)c1	nt	-0.5%	16%	0	-14	-1.3%	0.5
Cc1ccccc1C(=O)N1CCc2cc(-c3csc(NC(=O)CN4CCCC4)n3)ccc21	nt	0.2%	-3%	-14	38	nt	0.8
Nc1cc(Nc2ccccc2)c2nonc2c1[N+](=O)[O-]	?	45µM*	5%	-7	4	2.0%	0.5
Cc1ccc(-c2nc(CS(=O)(=O)CC(=O)NCCCN(Cc3ccccc3)C(C)C)c(C)o2)cc1	0.8	1.1%	13%	-8	-3	-9.2%	-0.5
COc1ccc(C)cc1NC(=O)c1ccc2c(Cl)c3c(nc2c1)CCC3	nt	0.5%	nt	nt	-15	5.4%	-0.6
COc1ccc(CCNCC(O)Cn2c3ccccc3c3ccccc32)cc1OC (configuration not stated)	-1.4	-0.9%	-2%	6	-13	-4.3%	1.9
O=C(NCc1ccc(F)cc1)c1ccc(CSCc2cccc(Cl)c2)o1	nt	?	nt	nt	15	-1.4%	1.8

Compound profiles, as listed above. Order of screens: Menin-MLL FL inh | PINK1 modulator | Sfp PPTase inh | TRPV1 potentiator | TRPML1 inh | ClpP mod | TRPML1 agonist
Shown for O=C(NCC1CCCN1S(=O)(=O)c1cccs1)C(=O)Nc1cccc(F)c1 (configuration not stated) = nt | -0.1% | nt | -35 | 6 | -7.6% | -0.1
Shown for O=C(CN1C(=O)/C(=C2/SC(=S)N(CCS(=O)(=O)O)C2=O)c2ccccc21)Nc1cccc(Br)c1 = nt | -0.1% | nt | nt | 3 | nt | -0.7
Shown for Cc1ccc(-c2nc(CS(=O)(=O)CC(=O)NCCCN(Cc3ccccc3)C(C)C)c(C)o2)cc1 = 0.8 | 1.1% | 13% | -8 | -3 | -9.2% | -0.5

Later entries:
SMILES	Menin-MLL FL inh	PINK1 modulator	Sfp PPTase inh	TRPV1 potentiator	TRPML1 inh	ClpP mod	TRPML1 agonist
O=C(O)C1C(c2ccccc2)c2ccccc2C(O)C1CO (configuration not stated)	nt	1.8%	nt	nt	0	nt	-0.4
O=C(N/N=C/c1ccc(Cl)cc1Cl)C1CCN(c2ncc(C(F)(F)F)cc2Cl)CC1	3.4	nt	10%	-3	nt	nt	nt
CC(C)Oc1ccc(S(=O)(=O)N2CCCCC2)cc1NC(=O)C1CCCC1	nt	2.7%	nt	-4	-2	0.3%	0.7
CCC/C=N/NC(=O)c1ccccc1O	-0.4	6.6%	2%	-17	19	nt	-0.3
Cc1ccc(S(=O)(=O)N(C)C[C@H]2OCc3cn(nn3)CCCC(=O)N([C@H](C)CO)C[C@@H]2C)cc1	nt	2.2%	nt	nt	3	1.2%	0.5
CCOc1ccc(C(C(=O)NCC2CCCO2)N(CCc2cccc(C)c2)C(=O)c2snc(C(N)=O)c2N)cc1 (configuration not stated)	4.7	0.6%	0%	17	12	1.9%	-0.6
COc1ccc(Nc2cccccc2=O)cc1	4.3	-1.6%	12%	-4	-8	-4.3%	-0.3
NC(=O)c1cc(NC(=O)CCc2nc3ccccc3s2)cc(C(N)=O)c1	0.9	2.4%	6%	8	-2	0.5%	-0.3
CC(C)N(C(=O)CSc1ccc(S(=O)(=O)N2CCCCC2)cn1)C(C)C	nt	-1.2%	nt	2	2	3.4%	-0.5
O=C(COC(=O)/C=C/c1ccc(S(=O)(=O)N2CCc3ccccc32)cc1)NC1CCS(=O)(=O)C1 (configuration not stated)	-2.3	0.1%	10%	10	1	nt	-1.0
CCCSc1nnc(-c2cnn(-c3ccccc3)c2-n2cccc2)n1C	0.9	1.2%	-27%	8	25	-1.1%	2.5
Cc1cnc2c(c1SCC(=O)NCc1ccccc1Cl)c(=O)n(C)c(=O)n2C	nt	2.7%	nt	nt	-27	4.3%	-0.1
NS(=O)(=O)c1ccc(N2N=C(c3ccccc3)CC2c2cccc(F)c2)cc1 (configuration not stated)	5.0	-3.7%	2%	-3	12	?	4.1
O=C1/C(=C\c2ccc(C(F)(F)F)cc2)CSc2sccc21	4.2	0.6%	17%	1	35	1.8%	1.7
Cc1ccc(S(=O)(=O)N2CCC(NC(=O)c3cccc(C)c3)CC2)cc1	-1.1	8.5%	9%	3	7	nt	-0.4
O=C(Cc1cccc2ccccc12)NCCC1=CCCCC1	9.0	-2.1%	0%	16	40	1.8%	0.7
COc1cc(C2SCC(=O)N2c2nnc(C34CC5CC(CC(C5)C3)C4)s2)cc(OC)c1OC (configuration not stated)	-0.8	nt	-7%	-14	-5	-2.3%	0.0
COc1ccc(NC(=O)Cn2c(=O)n(-c3ccc(C)c(C)c3)c(=O)c3c(C)c(C)sc32)cc1	nt	1.2%	nt	nt	12	1.7%	-0.8
O=C(Nc1ccccc1Cl)c1cc(C2CCCCN2S(=O)(=O)c2ccccc2)on1 (configuration not stated)	nt	0.8%	nt	nt	83	-14%	-0.4
Fc1ccc(/C=N/Nc2nc(-c3cccnc3)nc3ccccc23)cc1	14	3.6%	32µM*	-15	12	nt	0.0
CCCCn1c(SCC(=O)N2CCC(C)CC2)nc2cc(S(N)(=O)=O)ccc21	4.3	4.5%[38.3 µM]	?	-12	65	-2.6%	-0.6
Fc1ccc2cc(-c3ccccc3F)ncc2c1	nt	1.8%	nt	nt	53	?	0.2
CCCCN(C(=O)c1cccc(-n2cnnn2)c1)c1c(N)n(CCCC)c(=O)[nH]c1=O	nt	0.5%	nt	nt	7	-4.5%	-0.1
Cc1ccc(CCNc2nc3ccccc3c3nc(-c4ccccc4)nn23)cc1	nt	-0.9%	nt	nt	-12	1.1%	-0.2
CCCCOC(=O)Nc1nccs1	-1.6	-5.9%[38.3 µM]	-3%	11	0	-0.3%	0.1
Cc1ccc(C)c(S(=O)(=O)NCc2ccc(C(=O)N3CCCCCC3)cc2)c1	-2.6	3.5%	1%	12	-20	1.4%	1.8
COc1ccccc1C(NC(=O)C1CCN(CCOc2ccc(Cl)cc2Cl)CC1)c1ccccn1 (configuration not stated)	nt	-0.7%	nt	nt	nt	0.3%	0.0
O=C1c2ccccc2C2=Nc3ccccc3SC(c3ccccc3F)C12 (configuration not stated)	-0.5	?	-7%	6	-20	-3.6%	-0.2
Nc1cc(=O)[nH]c(=O)n1-c1ccc(Cl)cc1	3.1	1.2%	6%	16	-77*	-0.6%	-0.6
COc1cc(/C=C2\CCC(C3CCCC3)C2=O)cc(OC)c1OC (configuration not stated)	-6.1	7.6%	2%	-3	6	nt	0.1
O=C1CCCc2c1cc(-c1ccccc1)n2-c1ccc(O)cc1	2.7	5.1%	5%	1	-24	-8.1%	1.8
CCOC(=O)Cc1c(C)nc2c(C#N)c[nH]n2c1=O	6.3	-6.1%[38.3 µM]	17%	-9	5	?	-0.7
Cn1cc(Br)c(-c2cccc(NC(=O)CCCC(=O)O)c2)n1	-0.5	-1.0%	23%	12	-13	nt	-0.3
Cc1ccc(O)c(CNn2cnnc2)c1	-0.3	-3.1%[38.3 µM]	-2%	0	0	1.9%	-0.4
Cc1cc(C)nc(-n2nc(C)c(Br)c2Nc2ccc(Br)cc2)n1	1.0	2.2%	-1%	8	32	-0.8%	1.3
CC(=O)c1ccc(N2CCN(S(=O)(=O)c3ccc4c(c3)CC(C)N4C(C)=O)CC2)cc1 (configuration not stated)	nt	1.3%	2%	-2	13	nt	-0.6
CSc1ccccc1NC(=O)CN(C)C(=O)CNC(=O)c1ccc(Oc2ccccc2)cc1	nt	0.5%	nt	nt	11	-1.2%	0.4
C=CCn1c2[n+](c3ccccc3c1=O)CCCCC2	-1.5	1.8%	8%	13	21	-12%	2.2
